Screening results (PubChem)
Rango release inh: inhibitors of RanGTP-induced Rango-importin beta complex dissociation; 340,000 compounds, 0.071% hits; Biochemical FRET Rango-importin beta, RanGTP-induced dissociation; O95149+P62826; AID 540253; Potency, µM (series often up to 46.1 µM), for inactives: top-dose activity change, negative = inhibition; active means falling FRET ratio curve, often poorly fitted, with flat reads before Ran was added; inconclusive means other falling curves, or compound fluorescence or quenching; inactive means flat or rising ratio curve;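 further: potency means the concentration at half of the fitted maximal effect; % of control where 0% means no effect; nearly all actives have a fitted effect of over 45% in size; -100% = wells without RanGTP and RCC1; the record marks most hits as doubtful in a second field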
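Rango FRET biosensor (snurportin-1 IBB flanked by N-terminal EYFP and C-terminal CFP10) at 0.1 uM, with 0.25 uM importin beta in PBS, 1mM DTT, 0.02% Tween-20, 0.1% BSA. 0.6 uM Ran, 2mM GTP and 0.2 uM RCC1 were then added for 45 min at room temperature. Inhibition read as loss of FRET rise.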
miR-21 FLuc: miR-21 reporter, rising signal; AID 2288; 340,000 tested, under 10 active; Potency, µM (top dose mostly 38.3 µM), without a hit: at the highest dose reporter change, positive = more light; HeLa miR-21 FLuc reporter, luciferase, 48 h; active = well fitted rising curve with a large enough effect; inconclusive = small, poorly fitted or top-dose-only effect; inactive = no such curve, though single readings can be large or run the other way;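 further: % of control where 0% means no effect; miR-21 action dims this reporter so a rising signal means less miR-21 action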
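Luminescence from a firefly luciferase reporter carrying a miR-21 binding site downstream, stably expressed under a CMV promoter in HeLa cells that make miR-21 endogenously, reports miRNA modulation after 48 h compound exposure up to approximately 40uM final.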
Rango-impB inh: prevents formation of the Rango-importin beta complex | Q14974 | Rango CFP/YFP FRET sensor + importin beta, 45 min | 340,000 compounds, 0.031% hits | Potency, µM (doses to about 92.2 µM), for the others: at the highest dose inhibition of complex formation | AID 540263; active = rising FRET ratio curve, often small or poorly fitted; inconclusive = mostly compound fluorescence or quenching in the first reads; inactive = flat curves in all reads;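 further: potency means the concentration at half of the fitted maximal effect; 0% = DMSO wells and 100% = buffer wells lacking importin beta; nearly all actives have a fitted effect of over 15% in size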
Target sequence (Q14974 whole entry, looked up): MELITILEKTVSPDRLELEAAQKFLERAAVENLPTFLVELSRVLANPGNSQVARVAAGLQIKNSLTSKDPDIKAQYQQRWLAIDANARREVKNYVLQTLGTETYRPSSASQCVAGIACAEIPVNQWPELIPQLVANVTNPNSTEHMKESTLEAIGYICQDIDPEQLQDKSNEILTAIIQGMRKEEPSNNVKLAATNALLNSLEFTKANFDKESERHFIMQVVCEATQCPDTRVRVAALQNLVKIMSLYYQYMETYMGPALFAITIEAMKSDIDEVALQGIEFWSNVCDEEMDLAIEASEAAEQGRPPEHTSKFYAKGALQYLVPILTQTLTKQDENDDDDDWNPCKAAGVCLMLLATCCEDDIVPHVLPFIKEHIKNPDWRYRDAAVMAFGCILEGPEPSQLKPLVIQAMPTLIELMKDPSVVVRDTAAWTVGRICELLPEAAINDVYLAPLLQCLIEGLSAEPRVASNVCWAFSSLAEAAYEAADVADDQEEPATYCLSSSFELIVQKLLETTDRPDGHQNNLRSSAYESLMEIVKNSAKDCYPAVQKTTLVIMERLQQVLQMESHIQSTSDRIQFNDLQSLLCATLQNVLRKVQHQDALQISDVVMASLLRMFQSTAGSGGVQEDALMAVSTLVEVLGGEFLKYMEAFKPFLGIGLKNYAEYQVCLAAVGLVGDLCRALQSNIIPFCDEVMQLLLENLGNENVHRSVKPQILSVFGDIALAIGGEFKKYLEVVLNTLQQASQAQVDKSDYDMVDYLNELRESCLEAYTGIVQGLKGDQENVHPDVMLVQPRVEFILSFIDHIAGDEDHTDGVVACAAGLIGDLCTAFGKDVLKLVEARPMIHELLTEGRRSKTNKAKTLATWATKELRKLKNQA
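FRET biosensor Rango (snurportin 1 IBB between N-terminal EYFP and C-terminal Cerulean), 50 nM in PBS/1 mM DTT/0.02% Tween-20/0.1% BSA, preincubated 5 min RT with compound; 0.125 microM importin beta added, 45 min RT, CFP/YFP FRET ratio read.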
GLA inh pH 4.5: blocks human alpha-galactosidase A at pH 4.5; activity change, negative = inhibition, % at 105 µM; 230,000 tested, under 10 active; purified enzyme, 4-MU-alpha-Gal fluorescence, pH 4.5; P06280; AID 1467; inconclusive = small, poorly fitted or top-dose-only inhibition, or a rising curve; inactive = flat fitted curve, though single readings scatter; no compound was filed as active;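 further: 0% = full activity with enzyme and -100% = basal without enzyme; dose as in the result columns while the protocol names 77 µM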
Active calls of the source: *; u = inconclusive; x = no result given; [ ] = remark or other dose. A portion of the library, so the mix of outcomes need not match the whole.

The first 4 compounds, ahead of the listing:
Structure	Rango release inh	miR-21 FLuc	Rango-impB inh	GLA inh pH 4.5
CCOC(=O)CN1CC23C=CC(O2)C(C(=O)Nc2ccc(C(C)=O)cc2)C3C1=O (stereo not drawn)	-12%	-18%	-2.0%	3
Cc1cccn2c(=O)c3cc(C(=O)NC(C)C)c(=N)n(Cc4ccncc4)c3nc12	u	-2%	u	-8
Cc1cc(=O)[nH]c(SCC(=O)Nc2ccc(Br)cn2)n1	-18%	-4%	-0.8%	-3
COC(=O)C1CCN(C(=O)c2cc(=O)[nH]c3ccccc23)CC1	6%	0%	-6.7%	-3

The whole of this part, from the first entry:
Structure	Rango release inh	miR-21 FLuc	Rango-impB inh	GLA inh pH 4.5
CCOC(=O)CN1CC23C=CC(O2)C(C(=O)Nc2ccc(C(C)=O)cc2)C3C1=O (stereo not drawn)	-12%	-18%	-2.0%	3
Cc1cccn2c(=O)c3cc(C(=O)NC(C)C)c(=N)n(Cc4ccncc4)c3nc12	u	-2%	u	-8
Cc1cc(=O)[nH]c(SCC(=O)Nc2ccc(Br)cn2)n1	-18%	-4%	-0.8%	-3
COC(=O)C1CCN(C(=O)c2cc(=O)[nH]c3ccccc23)CC1	6%	0%	-6.7%	-3
COc1cccc2c1C1(O)C2CCCCCCCCCC12OCCCO2 (stereo not drawn)	21%	x	0.0%	x
O=[N+]([O-])c1ccc(Oc2ccc(S(=O)(=O)N3CCOCC3)cc2)cc1	12%	11%	-1.3%	x
COc1ccc(NC(=O)C2CCN(C(=O)NC3CCCCC3)CC2)c(OC)c1	5%	0%	0.1%	3
CC(C)OCC(O)CN1CCN(C(c2ccccc2)c2ccccc2)CC1 (stereo not drawn)	22%	2%	-0.7%	7
COc1cc(NC(=O)CN(c2cc(C)cc(C)c2)S(=O)(=O)c2c(C)noc2C)cc(OC)c1	-1%	-3%	-0.2%	1
COc1ccc2c(c1)CC(=O)NC=C2	-22%	-2%	0.5%	6
Nc1nonc1-n1nnc(C(=O)N/N=C/c2cccc(Cl)c2)c1CN1CCCCCC1	u	x	12%	x
COC(=O)COc1ccc2cc(-c3ccc(OC)cc3)c(=O)oc2c1	-10%	0%	-2.6%	x
S=C(NCc1ccco1)Nc1cccc(Cl)c1	-14%	5%	-0.1%	-12
CCOc1ccc(C(=O)Nc2cc(Cl)ccc2-n2cncn2)cc1OC	18%	x	0.8%	x
N#Cc1sc2nc(-c3cccs3)cc(-c3ccccc3)c2c1N	u	1%	u	-6
Cc1ccc(S(=O)(=O)N(Cc2cccc(Cl)c2)C(=O)N2CCN(C)CC2)cc1	12%	x	0.7%	x
COCCCNCCCCOc1ccc(OCc2ccccc2)cc1	4%	-66%	1.3%	-20
CSCCC(NS(=O)(=O)c1ccc2c(c1)OCCO2)C(=O)N(C)Cc1ccc(C)cc1 (stereo not drawn)	-11%	16%	1.4%	x
Cc1cc(C(F)(F)F)n2nc(C(=O)O)c(Cl)c2n1	2%	-5%	2.1%	6
O=C(C1CC1)N1CCN(c2ccc(O)cc2)CC1	-4%	-10%	0.9%	x
CC(=O)Nc1cccc(C(=O)/C=C/c2ccc[nH]2)c1	u	-56%	u	-12
CCC(C)NC(=O)CNS(=O)(=O)c1ccc(C)cc1 (stereo not drawn)	1%	-7%	4.6%	6
COCCn1c(C)cc(C2=NNC(=Nc3ccc(OC)cc3)SC2)c1C	-3%	-6%	6.2%	-3
Cn1cc(Cl)c(C(=O)N/N=C/c2ccc3c4c(cccc24)CC3)n1	-10%	-62%	u	x
COc1ccc(CCNC(=O)CS(=O)(=O)c2cn(CC(=O)N(C(C)C)C(C)C)c3ccccc23)cc1OC	-1%	-2%	-1.5%	x
COc1cccc(-c2ccc3ncnc(N(C)Cc4ccco4)c3c2)c1	-8%	x	-2.1%	x
Cc1ccc2[nH]c(C)c(CCNC(=O)C3CCCCC3C(=O)OCC(F)(F)F)c2c1 (stereo not drawn)	-4%	-10%	-0.2%	-9
Cc1ccc(C)c(Cn2ncc3ccccc32)c1	-14%	-1%	-3.9%	x
CCOC(=O)Oc1ccc2c(=O)c(Oc3cccc(C)c3)coc2c1	7%	-51%	2.7%	8
O=C(NC(=S)Nc1ccccc1N1CCOCC1)c1ccc(-c2cc(Cl)ccc2Cl)o1	6%	-5%	0.1%	0
COc1cc(/C=N/N(C)S(=O)(=O)c2ccc(C)cc2)cc([N+](=O)[O-])c1O	28%	-3%	4.1%	3
COc1ccc(C(=O)CC(=O)C(=O)Nc2ccccc2)cc1	-5%	0%	-1.1%	x
NC12NC(=O)C3(O)C4C5CC(C6C5C3C61)C42 (stereo not drawn)	10%	-1%	-2.5%	-14
CCCN1C2CCCC1CC(NC(=O)c1cc(OC)c(OC)c(OC)c1)C2 (stereo not drawn)	1%	-1%	-6.1%	0
CSc1c(C#N)c(N)c(C#N)c2c1COC(C)(C)C2	9%	-95%	-3.5%	-5
Cc1nnc(SCC(=O)Nc2ccc(-c3nc4ccccc4s3)cc2)s1	-6%	-60%	4.2%	-7
Cc1ccc(C(C)C)c(OCC(=O)NN2C(=O)c3ccccc3C2=O)c1	10%	1%	0.2%	x
Cc1ccc(N(C(=O)Cn2nnc3ccccc32)C(C(=O)NC2CCCCC2)c2cn(C)nc2C)cc1 (stereo not drawn)	-6%	-28%	-5.4%	1
COc1ccc(CC(=O)N(C)CC(=O)Nc2ccccc2Cl)cc1S(=O)(=O)N1CCOCC1	10%	x	-3.0%	x
CCOc1ccccc1CNC(=O)c1ccccc1NC(=O)C1=CSCCO1	22%	-4%	7.7%	x
COC(=O)CCN(C(=O)c1ccc(Cl)c([N+](=O)[O-])c1)c1ccccn1	16%	2%	-0.6%	4
O=C(O)C12C[C@H]3C[C@@H](C1)CC(n1ncc(N4CCN(c5ccccc5)CC4)c(Cl)c1=O)(C3)C2	2%	-5%	1.1%	5
CCOC(=O)CSc1nc(C)cc(C)c1C(N)=O	-14%	-3%	-0.7%	7
CC1Cc2ccccc2N1Cc1cc(=O)c(OCC(=O)Nc2ccccc2)co1 (stereo not drawn)	2%	x	0.6%	x
CC(=O)NC12CC3CC(C1)CC(C(=O)N1CCN(C(=O)c4ccco4)CC1)(C3)C2	-2%	x	-0.7%	x
CC(Sc1nnnn1-c1ccc(O)cc1)C(=O)NC1CCCCC1C (stereo not drawn)	-8%	11%	2.6%	x
Cc1ccc(S(=O)(=O)NCC(=O)N(CC2CCCO2)C(C(=O)NC2CCCCC2)C(C)C)cc1 (stereo not drawn)	13%	-4%	-1.8%	x
CCCNC(=O)CCn1c(-c2ccc(C)cc2)cc(C(=O)OCC)c1C	-10%	-8%	-2.5%	2
Nc1nc(NCc2ccco2)nc(N2CCCC2)c1[N+](=O)[O-]	-9%	-4%	-0.8%	-13
O=C(NC1CCCN(c2ccc(C(F)(F)F)cn2)C1)c1ccnc(Cl)c1 (stereo not drawn)	-9%	-4%	-0.5%	x

(more compounds)
Structure	Rango release inh	miR-21 FLuc	Rango-impB inh	GLA inh pH 4.5
CCC(C)(O)c1[nH]c2ccc(C(=O)OC)cc2c1C (stereo not drawn)	-2%	-32%	-5.2%	x
Cc1ccc(S(=O)(=O)N2CCN(C(=O)c3ccc([N+](=O)[O-])cc3)C2)cc1	16%	0%	5.8%	-2
COc1ccc(NC(=O)C(=O)NCC(=O)Nc2cccc(C(F)(F)F)c2)cc1	-3%	-8%	-0.6%	11
Cc1cc2c(cc1C)N(C(=O)CSc1nncn1C)C(C)(C)c1ssc(=S)c1-2	2%	-4%	2.1%	-8
CCC(CO)NCc1sccc1C (stereo not drawn)	11%	-3%	u	-21
CCSc1nnc(-c2ccccc2NC(=O)CC)c(=O)[nH]1	3%	0%	-0.9%	6
Cc1cc(-c2ccc(S(=O)(=O)N(C)Cc3ccccc3)cc2)on1	-2%	0%	2.9%	x
CCn1c(=O)[nH]c(=O)c2c(N)c(C(=O)c3cc(F)ccc3F)sc21	-14%	-27%	0.1%	-4
Cc1ccc2[nH]c(=O)c(CN(c3cccc(C)c3C)S(=O)(=O)c3ccccc3)cc2c1	3%	-2%	-4.2%	x
COc1ccc(C(=O)c2ccccc2Cl)cc1OC	8%	-16%	2.1%	5
Cc1cccc(N2C(=O)c3cccc4c(N5CCCCC5)c([N+](=O)[O-])cc(c34)C2=O)c1C	-19%	-4%	u	4
COc1ccc(/C=C(\C#N)C(=O)OCC(=O)Nc2c(C)cccc2C)cc1	3%	-2%	-0.1%	-2
O=C(Nc1ccccc1N1CCCCC1)c1cc(S(=O)(=O)N2CCOCC2)ccc1Cl	u	x	4.0%	x
COC(=O)Cn1c(C)c(/C=C/c2cc[n+](C)cc2)c2ccccc21	u	13%	u	x
CC12CCC(C(=O)NNC(=O)c3ccc(F)cc3)(OC1=O)C2(C)C (stereo not drawn)	1%	-1%	0.1%	x
CCN(CC(=O)NCc1cccs1)C(=O)COc1cccc(C(F)(F)F)c1	21%	x	3.4%	x
Cc1ccc(C)c2[nH]c(=O)c(CCNC(=O)Cc3cccs3)cc12	11%	-16%	0.1%	3
COC(=O)c1ccc(NC(=O)CSc2nncn2C)cc1	-1%	-1%	3.3%	0
Cc1nnc2c(-c3ccccc3)nc3ccccc3n12	-24%	-11%	-3.5%	-9
COc1ccc(C(=O)Nc2ccc(NS(=O)(=O)c3ccccc3)cc2)cc1OC	3%	-1%	-2.8%	1
CCCOC(=O)C1NC(=O)N2C(C(=O)OCCC)C(C)(C)S[C@H]12 (stereo partly drawn)	-4%	x	-0.3%	x
O=C(NC1=C(Nc2ccc(F)cc2)C(=O)c2ccccc2C1=O)c1ccc(Cl)cc1	-10%	1%	4.0%	4
O=[N+]([O-])c1nc2ccccc2[nH]1	1%	x	-1.3%	x
CCCCNC(=O)c1cc(C)nn1-c1ccccc1	-5%	-5%	0.9%	-6
CCOP(=O)(OCC)C(Nc1ccc([N+](=O)[O-])cc1)c1ccc(Cl)cc1 (stereo not drawn)	-9%	11%	0.2%	-14
O=C(NCCCCc1ccccc1)c1ccc(Br)o1	-12%	-24%	-5.1%	-8
COc1ccc(OCC(=O)Nc2ccc(S(=O)(=O)Nc3cc(C)nc(C)n3)cc2)cc1	11%	-3%	1.2%	-2
Cc1nn(-c2ccccc2)c(Cl)c1/C=N/NC(=O)OC(C)(C)C	-6%	-30%	-3.9%	-1
CC1CN(C(=O)c2cccs2)CC(C)O1 (stereo not drawn)	0%	3%	-0.6%	4[21.1 µM]
Cc1cc(S(=O)(=O)N2CCc3ccccc3C2)ccc1F	9%	0%	-1.4%	x
COc1cc(CC(NC(C)=O)C(=O)NC2CCN(C(=O)C3CC3)CC2)cc(OC)c1 (stereo not drawn)	14%	3%	-0.4%	-7
CC(C)[C@H]1CN=C2N(C[C@H](C)NC(=O)CCC3CCCCC3)[C@H](Cc3ccc(O)cc3)CN21	3%	20%	-0.2%	15
CCOC(=O)c1sc(NC(=O)Cc2c(F)cccc2Cl)nc1C	-14%	-10%	u	-1
CC1CC1C(=O)OCC(=O)NNC(=O)c1ccc([N+](=O)[O-])cc1 (stereo not drawn)	13%	x	-5.0%	x
Cc1nc2ccccc2c2oc(C(=O)N3CC(C)CC(C)C3)cc12 (stereo not drawn)	-29%	-4%	2.8%	x
Cc1ccc(C(C)NC(=O)c2cccnc2)cc1 (stereo not drawn)	-9%	x	-0.1%	x
